Source: PubChem BioAssay
PV pol inh – poliovirus RNA polymerase inhibition; % elongation, % (compound at 16.7 µg/mL); poliovirus polymerase elongation, fluorescence polarization; active compounds read low; AID 588519; 0.66% of 150,000 active; in the data active = % elongation below about 90%; also: some results filed as inactive read as strong as hits
Target sequence (P03300 1749-2209 limits assumed): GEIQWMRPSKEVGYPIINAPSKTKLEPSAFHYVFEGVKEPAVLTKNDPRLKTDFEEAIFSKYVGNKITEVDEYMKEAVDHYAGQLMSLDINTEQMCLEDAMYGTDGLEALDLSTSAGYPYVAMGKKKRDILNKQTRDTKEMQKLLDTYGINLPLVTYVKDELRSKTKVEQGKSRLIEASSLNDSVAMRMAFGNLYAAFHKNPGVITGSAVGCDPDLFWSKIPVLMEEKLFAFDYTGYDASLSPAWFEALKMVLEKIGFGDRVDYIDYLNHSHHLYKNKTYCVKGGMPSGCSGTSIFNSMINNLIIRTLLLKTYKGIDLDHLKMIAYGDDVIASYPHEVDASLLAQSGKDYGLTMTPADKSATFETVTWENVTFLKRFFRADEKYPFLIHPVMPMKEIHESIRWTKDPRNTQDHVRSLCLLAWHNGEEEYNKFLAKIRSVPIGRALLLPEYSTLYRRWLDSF
PV pol inh intensity – second read-out of PV pol inh, no call of its own (marks repeat the call); % elongation; measured here: total intensity read-out; formula for this scale not given here;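 total fluorescence in place of polarization; lower means less elongation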
An asterisk follows results filed as active.

Results for Cn1nnc2c(N3CCN(c4ccccc4F)CC3)ncnc21 ?
PV pol inh: 106.0; PV pol inh intensity: 110.0

Results for Cc1cc(C)c(NC(=O)Cn2c(=O)n(CC(=O)NCc3ccccc3Cl)c(=O)c3sccc32)c(C)c1 ?
PV pol inh: 101.0; PV pol inh intensity: 101.0

Results for CCc1ccc(NC(=O)CCCn2nc(C)c3c(C)n(-c4ccccc4)nc3c2=O)cc1 ?
PV pol inh: 110.0; PV pol inh intensity: 112.0

What do the screens show for `CCOc1cc(CNC(=O)NC2COc3ccccc3C2)cc(OCC)c1OCC` (stereo not given)?
PV pol inh: 112.0; PV pol inh intensity: 103.0

How did OCCN1CCN(c2ncnc3c2cnn3-c2cccc(Cl)c2)CC1 do in these assays?
PV pol inh: 103.0; PV pol inh intensity: 103.0

How did CN(C)c1ccc(CNC(=O)CN2C(=O)CCn3nc(-c4cn(C)c5ccccc45)cc32)cc1 do in these assays?
PV pol inh: 109.0; PV pol inh intensity: 115.0

What do the screens show for `CCn1cc(S(=O)(=O)c2ccc(OC)cc2)c(=O)c2cc(F)c(N3CCC(C)CC3)cc21`?
PV pol inh: 114.0; PV pol inh intensity: 111.0

How did CCCCc1nnc(SCc2cc(=O)c3cc(C(=O)OCC)ccc3[nH]2)n1C do in these assays?
PV pol inh: 102.0; PV pol inh intensity: 109.0

How did CCOc1ccc(NC(=O)c2ccc3c(SCC(=O)O)c4c(nc3c2)CCC4)cc1 do in these assays?
PV pol inh: 107.0; PV pol inh intensity: 106.0

What do the screens show for `COc1ccc(Cl)cc1NC(=O)c1cnc(SC)nc1-c1ccccc1`?
PV pol inh: 106.0; PV pol inh intensity: 112.0

How did Cc1ccc(NC(=O)C(=O)NCC(c2cccnc2)N2CCN(C)CC2)cc1C (stereo not given) do in these assays?
PV pol inh: 104.0; PV pol inh intensity: 108.0

How did Cc1cc(C)c(Cn2c(=O)n(-c3ccccc3Cl)c(=O)c3c(C)c(C(=O)N(C)C)sc32)c(C)c1 do in these assays?
PV pol inh: 105.0; PV pol inh intensity: 97.0

What do the screens show for `CCOc1ccc(NC(=O)Cn2c(=O)n(Cc3ccc4c(c3)OCO4)c(=O)c3ccc(C(=O)NC4CCCCC4)cc32)cc1`?
PV pol inh: 101.0; PV pol inh intensity: 104.0

Results for COc1cc(OC)c(N(C)C(=O)Nc2cn(CC(C)C)c(=O)c3ccccc23)cc1Cl ?
PV pol inh: 100.0; PV pol inh intensity: 105.0

How did Cc1ccc(F)cc1NC(=O)Cn1c(=O)nc(-c2ccccc2F)c2cc(Cl)ccc21 do in these assays?
PV pol inh: 110.0; PV pol inh intensity: 112.0

How did CCSc1nnnn1-c1cccc(C(=O)O)c1 do in these assays?
PV pol inh: 101.0; PV pol inh intensity: 104.0

Results for COc1ccc(-n2c(/C=C/c3cccc(C(F)(F)F)c3)nc3ccccc3c2=O)cc1Cl ?
PV pol inh: 117.0; PV pol inh intensity: 114.0

What do the screens show for `COc1ccc(N2CCN(c3csc4ccc(Cl)cc4c3=O)CC2)cc1`?
PV pol inh: 113.0; PV pol inh intensity: 113.0

Results for COCCNC(=O)c1ccc2c(=O)n(CCOC)c(SCC(=O)c3c[nH]c4ccccc34)nc2c1 ?
PV pol inh: 107.0; PV pol inh intensity: 118.0

What do the screens show for `CCCCN1C(=O)C(O)(CC(=O)c2ccc(C(C)(C)C)cc2)c2ccccc21` (stereo not given)?
PV pol inh: 108.0; PV pol inh intensity: 104.0

What do the screens show for `Cn1nc(C(=O)Nc2cccc(C(F)(F)F)c2)c2c1-c1ccccc1S(=O)(=O)C2`?
PV pol inh: 114.0; PV pol inh intensity: 112.0

What do the screens show for `COc1ccccc1N(Cc1cc2cccc(C)c2[nH]c1=O)C(=O)c1cccc(Cl)c1`?
PV pol inh: 120.0; PV pol inh intensity: 112.0

Results for CNC(=O)C1CCC(Cn2c(=O)c3sccc3n(CC(=O)Nc3ccccc3)c2=O)CC1 (stereo not given) ?
PV pol inh: 106.0; PV pol inh intensity: 112.0

How did COc1ccc2c(CNCc3ccc(C)o3)c(C(=O)O)n(Cc3ccccc3)c2c1 do in these assays?
PV pol inh: 112.0; PV pol inh intensity: 109.0

Results for Cc1cccc(C)c1NC(=O)CCS(=O)(=O)c1ccc2c(c1)n(C)c(=O)c(=O)n2C ?
PV pol inh: 101.0; PV pol inh intensity: 104.0

How did CCc1ccc2occ(CC(=O)Nc3c(C(=O)Nc4ccc(OC)cc4)oc4ccccc34)c2c1 do in these assays?
PV pol inh: 119.0; PV pol inh intensity: 121.0

What do the screens show for `Cc1ccc(C)c(N2CCN(S(=O)(=O)c3ccc4c(c3)CC(=O)N4C)CC2)c1`?
PV pol inh: 104.0; PV pol inh intensity: 105.0

What do the screens show for `COC(=O)c1n[nH]n(-c2ccccc2)c1=O`?
PV pol inh: 106.0; PV pol inh intensity: 108.0

How did CCOC(=O)c1cccc(NC(=O)c2cc(S(=O)(=O)N3CCCC3)cn2C)c1 do in these assays?
PV pol inh: 107.0; PV pol inh intensity: 105.0

How did CCOc1ccc(NC(=O)c2oc3ccccc3c2NC(=O)COc2cccc(OC)c2)cc1 do in these assays?
PV pol inh: 106.0; PV pol inh intensity: 109.0

How did CS(=O)(=O)N1CCC(N2CCN(Cc3ccc(F)cc3)C(=O)C2=O)CC1 do in these assays?
PV pol inh: 109.0; PV pol inh intensity: 115.0

How did COc1ccc(CSc2nc3ccncc3n2CC(=O)Nc2ccc(C)c(F)c2)cc1 do in these assays?
PV pol inh: 105.0; PV pol inh intensity: 105.0

How did COCCNC(=O)CCn1c(=O)c2cc(OC)c(OC)cc2n(CC(=O)Nc2ccc(F)c(Cl)c2)c1=O do in these assays?
PV pol inh: 101.0; PV pol inh intensity: 100.0

How did COc1ccccc1CNC(=O)c1cccc(Nc2nc3ccccc3n3nnnc23)c1 do in these assays?
PV pol inh: 100.0; PV pol inh intensity: 101.0

How did COc1ccc(-c2nc(-c3ccccc3)c(-c3ccc(F)cc3)[nH]2)c(OC)c1C do in these assays?
PV pol inh: 107.0; PV pol inh intensity: 111.0

Results for COc1ccc(CC(=O)NCCc2csc(-c3cccc(F)c3)n2)cc1OC ?
PV pol inh: 107.0; PV pol inh intensity: 110.0

What do the screens show for `O=C(Nc1ccc2nc(SCC(=O)N3CCc4ccccc43)sc2c1)c1cccc(F)c1`?
PV pol inh: 101.0; PV pol inh intensity: 106.0

Results for Cc1ccc(NC(=O)N2CCC3(CC2)Oc2ccccc2C(=O)N3Cc2ccc(F)cc2)cc1 ?
PV pol inh: 110.0; PV pol inh intensity: 110.0

What do the screens show for `CCc1ccccc1NC(=O)CN(Cc1ccccc1)S(=O)(=O)c1ccc2nc(C)sc2c1`?
PV pol inh: 109.0; PV pol inh intensity: 106.0

What do the screens show for `CCOC(=O)c1cc2c(=O)n3ccccc3nc2n(Cc2ccco2)c1=NC(=O)c1cccc(Br)c1`?
PV pol inh: 110.0; PV pol inh intensity: 118.0

What do the screens show for `CCOC(=O)c1c(NC(=O)CSc2cn(CCNC(=O)c3ccccc3F)c3ccccc23)sc2c1CCC2`?
PV pol inh: 102.0; PV pol inh intensity: 106.0

Results for CCOC(=O)N1CCN(S(=O)(=O)N2CCCC(C(=O)NCc3cc(Br)ccc3OC)C2)CC1 (stereo not given) ?
PV pol inh: 110.0; PV pol inh intensity: 109.0

Results for Cc1ccc(C)c(OCCn2c(CCNC(=O)C3CCCCC3)nc3ccccc32)c1 ?
PV pol inh: 110.0; PV pol inh intensity: 112.0

Results for Cc1cc(C)c2oc(C(=O)Nc3ccc(S(=O)(=O)Nc4ncccn4)cc3)cc(=O)c2c1 ?
PV pol inh: 112.0; PV pol inh intensity: 115.0

Results for COc1ccc(NCc2cccn2-c2nnc(N3CCOCC3)s2)c(OC)c1 ?
PV pol inh: 106.0; PV pol inh intensity: 111.0

How did O=C(Nc1c(C(=O)Nc2ccc(F)cc2)oc2ccccc12)c1cc2ccccc2o1 do in these assays?
PV pol inh: 102.0; PV pol inh intensity: 104.0

What do the screens show for `Cc1cccc(-n2ncc3c(N4CCCCCC4)ncnc32)c1`?
PV pol inh: 109.0; PV pol inh intensity: 103.0

What do the screens show for `COC(=O)c1ccccc1NC(=O)c1cc(CN2CCOCC2)on1`?
PV pol inh: 111.0; PV pol inh intensity: 111.0

How did Cc1ccc(Cn2c(=O)n(CCc3ccccc3)c(=O)c3sc4ccccc4c32)cc1 do in these assays?
PV pol inh: 100.0; PV pol inh intensity: 101.0

What do the screens show for `CC(=O)c1cccc(NC(=O)c2cc3c(s2)-c2c(C)cccc2OC3)c1`?
PV pol inh: 104.0; PV pol inh intensity: 104.0

Results for COc1ccc(-n2nc(C(=O)N3CCCCC3)c3c4ccccc4n(C)c3c2=O)cc1Cl ?
PV pol inh: 107.0; PV pol inh intensity: 109.0

Results for CC(=O)c1cccc(NC(=O)CN2C=NS(=O)(=O)c3ccc(C)cc32)c1 ?
PV pol inh: 105.0; PV pol inh intensity: 108.0

Results for O=C(NCc1ccccc1Cl)c1ccc(Cn2c(SCc3ccccc3)nc3cccnc32)cc1 ?
PV pol inh: 105.0; PV pol inh intensity: 110.0

How did Cc1ccc(C(=O)c2sc(Nc3ccc(F)cc3)nc2N)c(C)c1 do in these assays?
PV pol inh: 110.0; PV pol inh intensity: 111.0

How did COCC(=O)N1CCc2cc(OC)c(OC)cc2C1COc1ccc2c(C)cc(=O)oc2c1 (stereo not given) do in these assays?
PV pol inh: 109.0; PV pol inh intensity: 112.0

Results for COCC(=O)N1c2nc(C(C)C)nn2C2(CCCCC2)[C@@H]2CCCC[C@@H]21 ?
PV pol inh: 104.0; PV pol inh intensity: 107.0

What do the screens show for `Cc1ccc(OCC(=O)OCc2cc(=O)n3nc(C4CC4)sc3n2)cc1C`?
PV pol inh: 105.0; PV pol inh intensity: 118.0

What do the screens show for `O=C(Nc1cc(Cl)cc(Cl)c1)c1cc(S(=O)(=O)NC2CCCC2)ccc1F`?
PV pol inh: 113.0; PV pol inh intensity: 114.0

Results for Cc1ccc(C(=O)N(Cc2ccco2)Cc2sccc2C)cc1 ?
PV pol inh: 108.0; PV pol inh intensity: 107.0

Results for Cc1ccc(NC(=O)/C=C\C(=O)N(c2ccc(C(C)C)cc2)C(C(=O)NCc2ccco2)c2ccc(Cl)cc2)cc1 (stereo not given) ?
PV pol inh: 106.0; PV pol inh intensity: 106.0

Looked up by compound from the list above, 2 records:
How did COCCNC(=O)CCn1c(=O)c2cc(OC)c(OC)cc2n(CC(=O)Nc2ccc(F)c(Cl)c2)c1=O do in these assays?
PV pol inh: 101.0; PV pol inh intensity: 100.0

How did COc1ccccc1CNC(=O)c1cccc(Nc2nc3ccccc3n3nnnc23)c1 do in these assays?
PV pol inh: 100.0; PV pol inh intensity: 101.0

(continued)
Results for CCOc1ccc(-c2nonc2NC(=O)c2oc3ccc(CC)cc3c2C)cc1 ?
PV pol inh: 112.0; PV pol inh intensity: 109.0

What do the screens show for `Oc1c(C(c2ccc(F)cc2)N2CCOCC2)sc2nc(-c3ccco3)nn12` (stereo not given)?
PV pol inh: 109.0; PV pol inh intensity: 111.0

Results for COCCCNC(=O)c1ccc2nc(Cc3ccc(OC)cc3)oc2c1 ?
PV pol inh: 108.0; PV pol inh intensity: 101.0

Results for O=C(CSc1nc2ncccc2[nH]1)Nc1cc(F)ccc1F ?
PV pol inh: 108.0; PV pol inh intensity: 110.0

How did CCc1cccc(NC(=O)CCn2c(=O)c3cccn3c3cccnc32)c1 do in these assays?
PV pol inh: 111.0; PV pol inh intensity: 114.0

Results for Cc1ccc(NC(=O)CSc2nnc(NC(=O)NC3CCCCC3)s2)cc1 ?
PV pol inh: 104.0; PV pol inh intensity: 108.0

What do the screens show for `Cc1ccc(Nc2sc(C(=O)c3ccccc3)c(N)c2S(=O)(=O)c2ccccc2)cc1Cl`?
PV pol inh: 111.0; PV pol inh intensity: 113.0

How did Cc1ccc(NC(=O)C(=O)NCC(c2cccnc2)N2CCc3ccccc3C2)cc1 (stereo not given) do in these assays?
PV pol inh: 106.0; PV pol inh intensity: 106.0

Results for CCc1c(C)nc(SCc2nc(-c3ccccc3)no2)[nH]c1=O ?
PV pol inh: 106.0; PV pol inh intensity: 88.0

Results for Cc1cccc(OCC(=O)Nc2ccc3oc(-c4ccccc4F)nc3c2)c1 ?
PV pol inh: 106.0; PV pol inh intensity: 109.0

What do the screens show for `COc1ccc(OCC(=O)Nc2cc(-c3cccc(Cl)c3)nn2-c2ccccc2)cc1`?
PV pol inh: 108.0; PV pol inh intensity: 111.0

How did COc1ccccc1NC(=O)CSc1nnc(-c2ccccc2C)o1 do in these assays?
PV pol inh: 102.0; PV pol inh intensity: 101.0

Results for COc1cc(OC)cc(C(=O)Nc2ccc(-c3nc4ccccc4s3)c(C)c2)c1 ?
PV pol inh: 110.0; PV pol inh intensity: 102.0

How did Cc1ccc(C2C=C(c3ccccc3)Nc3nc(NS(C)(=O)=O)nn32)cc1 (stereo not given) do in these assays?
PV pol inh: 104.0; PV pol inh intensity: 119.0

What do the screens show for `Cc1ccc(NC(=O)c2cc(S(=O)(=O)N3CCCCC3)c[nH]2)cc1N(C)C`?
PV pol inh: 107.0; PV pol inh intensity: 110.0

Grouped by structure: the entries above containing an NH in an aromatic ring
How did CCCCc1nnc(SCc2cc(=O)c3cc(C(=O)OCC)ccc3[nH]2)n1C do in these assays?
PV pol inh: 102.0; PV pol inh intensity: 109.0

Results for COCCNC(=O)c1ccc2c(=O)n(CCOC)c(SCC(=O)c3c[nH]c4ccccc34)nc2c1 ?
PV pol inh: 107.0; PV pol inh intensity: 118.0

What do the screens show for `COc1ccccc1N(Cc1cc2cccc(C)c2[nH]c1=O)C(=O)c1cccc(Cl)c1`?
PV pol inh: 120.0; PV pol inh intensity: 112.0

What do the screens show for `COC(=O)c1n[nH]n(-c2ccccc2)c1=O`?
PV pol inh: 106.0; PV pol inh intensity: 108.0

How did COc1ccc(-c2nc(-c3ccccc3)c(-c3ccc(F)cc3)[nH]2)c(OC)c1C do in these assays?
PV pol inh: 107.0; PV pol inh intensity: 111.0

Results for O=C(CSc1nc2ncccc2[nH]1)Nc1cc(F)ccc1F ?
PV pol inh: 108.0; PV pol inh intensity: 110.0

Results for CCc1c(C)nc(SCc2nc(-c3ccccc3)no2)[nH]c1=O ?
PV pol inh: 106.0; PV pol inh intensity: 88.0

What do the screens show for `Cc1ccc(NC(=O)c2cc(S(=O)(=O)N3CCCCC3)c[nH]2)cc1N(C)C`?
PV pol inh: 107.0; PV pol inh intensity: 110.0

Only part of the results is shown (hit frequency here may not be typical).
